Bioassay records (PubChem BioAssay)
STAT3 binder – STAT3 (human) binding | P40763 | Small molecule microarray, His-STAT3 binding, anti-His fluorescence | calls only | 0.2% of 17,000 active;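 active = compounds whose four printed spots each show fluorescence over background unusually high for their array block, chance value under 7%; compounds were printed on slides so no solution concentration is given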;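 note: about 2 pmol printed per array spot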
Target sequence (P40763 whole entry, looked up): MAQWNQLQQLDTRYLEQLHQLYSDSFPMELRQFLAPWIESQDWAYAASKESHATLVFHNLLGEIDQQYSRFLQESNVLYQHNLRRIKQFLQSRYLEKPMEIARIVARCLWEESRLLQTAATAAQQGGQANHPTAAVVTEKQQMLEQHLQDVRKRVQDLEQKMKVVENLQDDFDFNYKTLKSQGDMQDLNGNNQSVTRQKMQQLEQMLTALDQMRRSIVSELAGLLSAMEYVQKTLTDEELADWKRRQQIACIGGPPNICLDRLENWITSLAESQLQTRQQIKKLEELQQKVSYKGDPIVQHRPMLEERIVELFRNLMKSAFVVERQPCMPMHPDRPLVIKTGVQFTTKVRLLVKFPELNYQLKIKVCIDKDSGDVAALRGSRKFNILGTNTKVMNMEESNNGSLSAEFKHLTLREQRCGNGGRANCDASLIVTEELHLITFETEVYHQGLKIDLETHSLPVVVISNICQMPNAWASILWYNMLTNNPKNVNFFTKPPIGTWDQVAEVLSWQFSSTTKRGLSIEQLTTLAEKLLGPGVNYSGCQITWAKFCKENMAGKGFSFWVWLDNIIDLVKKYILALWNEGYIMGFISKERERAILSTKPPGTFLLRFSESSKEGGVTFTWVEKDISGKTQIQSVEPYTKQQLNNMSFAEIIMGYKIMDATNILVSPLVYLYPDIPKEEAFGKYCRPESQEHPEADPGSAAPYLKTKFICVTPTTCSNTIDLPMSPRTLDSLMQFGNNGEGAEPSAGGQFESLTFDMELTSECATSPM
mut p53 SMM – binders of human mutant p53 | AID 624136 | 0.4% of 17,000 active | calls only | small molecule microarray binding, anti-GST fluorescence;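 active = compounds whose four printed spots each glow above background more than chance allows, each with a p-value under 7%; compounds were printed on slides so no solution concentration is given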;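 note: about 2 pmol printed per array spot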
c-Myc SMM – binds human c-Myc on microarray; P01106; small molecule microarray, His-c-Myc binding, anti-His fluorescence; calls only; 1.5% of 17,000 active; AID 624141;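 active = spot fluorescence over background with P-value below 7% in all four replicate spots, showing protein binding; compounds were printed on slides so no solution concentration is given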;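 note: score is binary with 100 for all four spots passing and 0 otherwise; about 2 pmol printed per array spot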
ID4 SMM – binds human ID4 protein on microarray | 1.2% of 31,000 active | calls only | P47928 | small molecule microarray, Flag-ID4 binding, fluorescence F/B;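 active = spot signal over background at p below 0.07 in all four prints; compounds were printed on slides so no solution concentration is given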;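 note: a binder raises fluorescence above local background on the spot; about 2 pmol printed per array spot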
Target sequence (P47928 whole entry, looked up): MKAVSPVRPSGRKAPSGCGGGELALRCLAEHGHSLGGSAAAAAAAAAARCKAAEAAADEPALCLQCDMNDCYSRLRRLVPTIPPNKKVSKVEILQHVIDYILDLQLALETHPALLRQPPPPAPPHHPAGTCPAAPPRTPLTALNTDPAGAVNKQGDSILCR
Calls only. Some of the compounds tested; the hit share may differ from the screen's.

Results for CC(=O)[C@H]1[C@H](C#N)C[C@H]2[C@@H]3CC=C4C[C@@H](O)CC[C@]4(C)[C@H]3CC[C@@]21C ?
STAT3 binder: inactive; mut p53 SMM: inactive; c-Myc SMM: inactive; ID4 SMM: inactive

Results for CN1CCN(C(=O)C2=C[C@@H](c3coc4ccccc4c3=O)C[C@@H](OCCCCO)O2)CC1 ?
STAT3 binder: inactive; mut p53 SMM: inactive; c-Myc SMM: inactive; ID4 SMM: inactive

Results for COc1ccc(NC(=O)c2ccc(Cn3cc(Br)cn3)cc2)cc1OC ?
STAT3 binder: inactive; mut p53 SMM: inactive; c-Myc SMM: inactive; ID4 SMM: inactive

What do the screens show for `COc1ccc(S(=O)(=O)Nc2cccc3c2O[C@H](CN(C)Cc2ccncc2)[C@H](C)CN([C@H](C)CO)C3=O)cc1`?
STAT3 binder: inactive; mut p53 SMM: inactive; c-Myc SMM: inactive; ID4 SMM: inactive

How did C[C@]12C[C@@H](O)[C@@H]3C[C@@]1(O[C@@H]1O[C@H](CO)[C@@H](O)[C@H](O)[C@H]1O)[C@]3(COC(=O)c1ccccc1)C(=O)O2 do in these assays?
STAT3 binder: inactive; mut p53 SMM: inactive; c-Myc SMM: inactive

What do the screens show for `C[C@@H]1CCCCO[C@@H](CN(C)Cc2ccncc2)[C@@H](C)CN([C@H](C)CO)C(=O)c2cc(N(C)C)ccc2O1`?
STAT3 binder: inactive; mut p53 SMM: inactive; c-Myc SMM: inactive; ID4 SMM: inactive

What do the screens show for `CC1(C)Oc2ccc(C#N)cc2[C@@H](OC2=CC(=O)CC2)[C@@H]1O`?
STAT3 binder: inactive; mut p53 SMM: inactive; c-Myc SMM: inactive; ID4 SMM: inactive

How did COc1ccccc1NC(=O)CSc1ncnc2scc(-c3ccccc3)c12 do in these assays?
STAT3 binder: inactive; mut p53 SMM: inactive; c-Myc SMM: inactive; ID4 SMM: inactive

Results for N#Cc1c(C(F)(F)F)cc(-c2ccccc2)nc1SCC(=O)Nc1ccccc1C(F)(F)F ?
STAT3 binder: inactive; mut p53 SMM: inactive; c-Myc SMM: inactive; ID4 SMM: inactive

How did CCOC(=O)CSc1nc(C)cc(=O)[nH]1 do in these assays?
STAT3 binder: inactive; mut p53 SMM: inactive; c-Myc SMM: inactive; ID4 SMM: inactive

How did CC(C)NC(=O)Nc1ccc2c(c1)C(=O)N([C@@H](C)CO)C[C@@H](C)[C@@H](CN(C)C(=O)CCCN(C)C)OCCCC[C@@H](C)O2 do in these assays?
STAT3 binder: inactive; mut p53 SMM: inactive; c-Myc SMM: inactive; ID4 SMM: inactive

Results for C[C@@H]1CCCCO[C@@H](CN(C)C(=O)C2CCCCC2)[C@H](C)CN([C@@H](C)CO)C(=O)c2cc(NC(=O)Nc3ccc(F)cc3)ccc2O1 ?
STAT3 binder: inactive; mut p53 SMM: inactive; c-Myc SMM: inactive

How did C[C@H](CO)N1C[C@H](C)[C@@H](CN(C)Cc2ccc(C(F)(F)F)cc2)Oc2c(NC(=O)c3ccncc3)cccc2C1=O do in these assays?
STAT3 binder: inactive; mut p53 SMM: inactive; c-Myc SMM: inactive; ID4 SMM: inactive

What do the screens show for `CCc1c(C)[nH]c2c1C(=O)C(CN1CCOCC1)CC2` (configuration not stated)?
STAT3 binder: inactive; mut p53 SMM: inactive; c-Myc SMM: inactive; ID4 SMM: inactive

Results for C[C@@H]1CCCCO[C@@H](CN(C)C(=O)CCC(F)(F)F)[C@@H](C)CN([C@H](C)CO)C(=O)c2cc(NC(=O)c3ccncc3)ccc2O1 ?
STAT3 binder: inactive; mut p53 SMM: inactive; c-Myc SMM: inactive; ID4 SMM: inactive

Results for COc1ccc(OCc2nnc3n2N=C(c2ccc(OC)c(OC)c2)C(c2ccccc2)S3)cc1 (configuration not stated) ?
STAT3 binder: inactive; mut p53 SMM: inactive; c-Myc SMM: inactive; ID4 SMM: inactive

What do the screens show for `C[C@H](CO)N1C[C@H](C)[C@@H](CN(C)C(=O)Nc2ccc(N3CCCCC3)cc2)OCc2cn(nn2)CCCC1=O`?
STAT3 binder: inactive; mut p53 SMM: inactive; c-Myc SMM: inactive; ID4 SMM: inactive

How did COc1ccc([Si](C)(C)[C@H]2[C@H](CCn3cc(CCO)nn3)O[C@@]3(C(=O)N(C)c4ccccc43)[C@@H]2C)cc1 do in these assays?
STAT3 binder: inactive; mut p53 SMM: inactive; c-Myc SMM: inactive; ID4 SMM: inactive

Results for C[C@@H]1CN([C@@H](C)CO)C(=O)c2cc(NS(=O)(=O)c3ccccc3)ccc2O[C@H]1CN(C)C ?
STAT3 binder: inactive; mut p53 SMM: inactive; c-Myc SMM: inactive; ID4 SMM: inactive

Results for C[C@H](O)CC1=C[C@H](O)[C@@H](C)OC1=O ?
STAT3 binder: inactive; mut p53 SMM: inactive; c-Myc SMM: inactive

How did Cc1nc2ccc(NC(=O)Nc3ccnc4cccnc34)cc2o1 do in these assays?
STAT3 binder: inactive; mut p53 SMM: inactive; c-Myc SMM: inactive; ID4 SMM: inactive

How did COc1ccc(-c2cc(=O)c3ccc(OC)cc3o2)cc1 do in these assays?
STAT3 binder: inactive; mut p53 SMM: inactive; c-Myc SMM: inactive

What do the screens show for `COc1ccc(S(=O)(=O)N(C)C[C@H]2Oc3ccc(NC(=O)Nc4ccc(C(F)(F)F)cc4)cc3C(=O)N([C@@H](C)CO)C[C@H]2C)cc1`?
STAT3 binder: inactive; mut p53 SMM: inactive; c-Myc SMM: inactive; ID4 SMM: inactive

Results for CCNC(=O)C1OC(n2cnc3c(N)nc(NCCc4ccc(CCC(=O)O)cc4)nc32)C(O)C1O (configuration not stated) ?
STAT3 binder: inactive; mut p53 SMM: inactive; c-Myc SMM: inactive; ID4 SMM: inactive

What do the screens show for `C[C@H](CO)N1C[C@H](C)[C@H](CN(C)S(=O)(=O)c2ccc(Oc3ccccc3)cc2)OCc2cn(nn2)CCCC1=O`?
STAT3 binder: inactive; mut p53 SMM: inactive; c-Myc SMM: inactive; ID4 SMM: inactive

How did C[C@H]1CN([C@@H](C)CO)C(=O)Cc2cc(NC(=O)Cn3cnnn3)ccc2O[C@@H]1CN(C)C(=O)NC1CCCCC1 do in these assays?
STAT3 binder: inactive; mut p53 SMM: inactive; c-Myc SMM: inactive; ID4 SMM: inactive

How did O=c1cc(-c2ccc(O)cc2)oc2c(C3O[C@H](CO)[C@@H](O)[C@H](O)[C@H]3O)c(O)cc(O)c12 (some centres not stated) do in these assays?
STAT3 binder: inactive; mut p53 SMM: inactive; c-Myc SMM: inactive; ID4 SMM: inactive

What do the screens show for `C[C@@H]1CN([C@@H](C)CO)C(=O)c2cc(NS(=O)(=O)c3cccs3)ccc2O[C@@H](C)CCCCO[C@H]1CN(C)S(=O)(=O)c1cccs1`?
STAT3 binder: inactive; mut p53 SMM: inactive; c-Myc SMM: inactive; ID4 SMM: inactive

How did C[C@@H]1CN([C@H](C)CO)C(=O)c2cc(NC(=O)NC3CCCCC3)ccc2O[C@H]1CN(C)Cc1ccc(C(=O)O)cc1 do in these assays?
STAT3 binder: inactive; mut p53 SMM: inactive; c-Myc SMM: inactive; ID4 SMM: inactive

How did Cc1noc(C)c1NC(=O)N(C)C[C@@H]1Oc2ccc(NC(=O)Cc3cn(C)c4ccccc34)cc2CC(=O)N([C@@H](C)CO)C[C@H]1C do in these assays?
STAT3 binder: inactive; mut p53 SMM: inactive; c-Myc SMM: inactive; ID4 SMM: inactive

What do the screens show for `C[C@H](CO)N1C[C@H](C)[C@H](CN(C)S(=O)(=O)c2cn(C)cn2)Oc2ccc(NC(=O)Cc3cn(C)c4ccccc34)cc2CC1=O`?
STAT3 binder: inactive; mut p53 SMM: inactive; c-Myc SMM: inactive; ID4 SMM: inactive

Results for O=C(CN1C(=O)c2ccccc2S1(=O)=O)Nc1ccccc1Br ?
STAT3 binder: inactive; mut p53 SMM: inactive; c-Myc SMM: inactive; ID4 SMM: inactive

What do the screens show for `O=C(O)CSc1nnc(C2COc3ccccc3O2)n1-c1ccccc1` (configuration not stated)?
STAT3 binder: inactive; mut p53 SMM: inactive; c-Myc SMM: inactive; ID4 SMM: inactive

What do the screens show for `NC(=O)c1ccc(-c2nc(-c3ccc4c(c3)OCCO4)c(-c3ccccn3)[nH]2)cc1`?
STAT3 binder: inactive; mut p53 SMM: inactive; c-Myc SMM: inactive; ID4 SMM: inactive

Results for COc1ccc(NC(=O)N(C)C[C@H]2Oc3ccc(NS(=O)(=O)c4ccccc4)cc3C(=O)N([C@H](C)CO)C[C@H]2C)cc1 ?
STAT3 binder: inactive; mut p53 SMM: inactive; c-Myc SMM: inactive; ID4 SMM: inactive

What do the screens show for `CN(Cc1n[nH]c(=S)n1C)S(=O)(=O)c1ccccc1`?
STAT3 binder: inactive; mut p53 SMM: inactive; c-Myc SMM: inactive; ID4 SMM: inactive

Results for C[C@@H]1CN([C@@H](C)CO)C(=O)Cc2cc(NC(=O)CCN3CCOCC3)ccc2O[C@@H]1CN(C)S(=O)(=O)c1cccs1 ?
STAT3 binder: inactive; mut p53 SMM: inactive; c-Myc SMM: inactive; ID4 SMM: inactive

Results for C[C@@H]1CN([C@@H](C)CO)C(=O)c2cccc(NC(=O)Nc3cccc4ccccc34)c2O[C@H]1CN(C)C(=O)Nc1ccc(C(F)(F)F)cc1 ?
STAT3 binder: inactive; mut p53 SMM: inactive; c-Myc SMM: inactive; ID4 SMM: inactive

How did CC(=O)c1c(O)cc(O)cc1O do in these assays?
STAT3 binder: inactive; mut p53 SMM: inactive; c-Myc SMM: inactive

Results for CCCCCCC(=O)OC1OC(CO)C(O)C2OCC(C(=O)O)COC12 (configuration not stated) ?
STAT3 binder: inactive; mut p53 SMM: inactive; c-Myc SMM: inactive; ID4 SMM: inactive

Results for C[C@@H]1CN([C@H](C)CO)C(=O)c2cc(NC(=O)CCN3CCOCC3)ccc2O[C@H]1CN(C)C(=O)Nc1ccc(F)cc1 ?
STAT3 binder: inactive; mut p53 SMM: inactive; c-Myc SMM: inactive; ID4 SMM: inactive

What do the screens show for `CC(C)(C)c1cc(CNCCS(=O)(=O)O)c(O)c(C(C)(C)C)c1`?
STAT3 binder: inactive; mut p53 SMM: inactive; c-Myc SMM: inactive; ID4 SMM: inactive

Results for C[C@@H]1CCCCO[C@H](CN(C)Cc2ccncc2)[C@H](C)CN([C@@H](C)CO)C(=O)c2cc(NS(=O)(=O)c3ccc(Cl)cc3)ccc2O1 ?
STAT3 binder: inactive; mut p53 SMM: inactive; c-Myc SMM: inactive

What do the screens show for `C[C@@H]1CCCCO[C@H](CN(C)C(=O)Nc2ccccc2)[C@@H](C)CN([C@H](C)CO)C(=O)c2cc(NC(=O)c3ccccc3)ccc2O1`?
STAT3 binder: inactive; mut p53 SMM: inactive; c-Myc SMM: inactive; ID4 SMM: inactive

How did Cc1ccc(CC(c2nc3ccccc3[nH]2)C(C)c2nc3ccccc3[nH]2)cc1 (configuration not stated) do in these assays?
STAT3 binder: inactive; mut p53 SMM: inactive; c-Myc SMM: inactive; ID4 SMM: inactive

Quoted at random: 3 compounds from above, in no set order.
Results for C[C@@H]1CN([C@@H](C)CO)C(=O)Cc2cc(NC(=O)CCN3CCOCC3)ccc2O[C@@H]1CN(C)S(=O)(=O)c1cccs1 ?
STAT3 binder: inactive; mut p53 SMM: inactive; c-Myc SMM: inactive; ID4 SMM: inactive

What do the screens show for `C[C@H](CO)N1C[C@H](C)[C@H](CN(C)S(=O)(=O)c2cn(C)cn2)Oc2ccc(NC(=O)Cc3cn(C)c4ccccc34)cc2CC1=O`?
STAT3 binder: inactive; mut p53 SMM: inactive; c-Myc SMM: inactive; ID4 SMM: inactive

Results for C[C@@H]1CN([C@H](C)CO)C(=O)c2cc(NC(=O)CCN3CCOCC3)ccc2O[C@H]1CN(C)C(=O)Nc1ccc(F)cc1 ?
STAT3 binder: inactive; mut p53 SMM: inactive; c-Myc SMM: inactive; ID4 SMM: inactive

Further entries follow.
What do the screens show for `COc1ccc(CN(C)C[C@H]2OCCCC[C@@H](C)Oc3ccc(NC(=O)Nc4c(C)noc4C)cc3C(=O)N([C@@H](C)CO)C[C@H]2C)cc1`?
STAT3 binder: inactive; mut p53 SMM: inactive; c-Myc SMM: inactive; ID4 SMM: inactive

How did CNC[C@H]1Oc2ccc(NC(=O)Nc3ccc4c(c3)OCO4)cc2C(=O)N([C@@H](C)CO)C[C@H]1C do in these assays?
STAT3 binder: inactive; mut p53 SMM: inactive; c-Myc SMM: inactive; ID4 SMM: active

Results for Cc1ccc(OCC(=O)Nc2cccc3c2C(=O)NC3=O)cc1C ?
STAT3 binder: inactive; mut p53 SMM: inactive; c-Myc SMM: inactive; ID4 SMM: inactive

What do the screens show for `CC(=O)O[C@H]1[C@H](Oc2ccccc2COC(=O)C2(O)C=CCCC2=O)O[C@H](CO)[C@@H](O)[C@@H]1O` (some centres not stated)?
STAT3 binder: inactive; mut p53 SMM: inactive; c-Myc SMM: inactive; ID4 SMM: inactive

Results for CC1Cc2ccc3c(c2C(O)C1)C(=O)c1cccc(O)c1C3O (configuration not stated) ?
STAT3 binder: inactive; mut p53 SMM: inactive; c-Myc SMM: inactive; ID4 SMM: inactive

Results for C[C@H]1CN([C@@H](C)CO)C(=O)Cc2cc(NC(=O)Cc3cn(C)c4ccccc34)ccc2O[C@@H]1CN(C)C(=O)NC1CCCCC1 ?
STAT3 binder: inactive; mut p53 SMM: inactive; c-Myc SMM: inactive; ID4 SMM: inactive

What do the screens show for `Cc1noc(C)c1S(=O)(=O)N(C)C[C@H]1OCCCC[C@H](C)Oc2ccc(NC(=O)CCCN(C)C)cc2C(=O)N([C@H](C)CO)C[C@H]1C`?
STAT3 binder: inactive; mut p53 SMM: inactive; c-Myc SMM: inactive; ID4 SMM: inactive
